Screens (PubChem BioAssay)
D2 agonist = agonists of human D2 dopamine receptor (beta-arrestin); P14416; DiscoveRx PathHunter D2 beta-arrestin, luminescence, 90 min; 100% = 57 uM dopamine signal; activation, % (test concentration not listed); hit rate 0.084% among 360,000; AID 624465; in the data active = activation above about 40%; inconclusive = about 15% to 40%; inactive = below about 15%; further: compound concentration not given in the record; the text of the record calls up to 30% inactive
Target sequence (P14416 whole entry, looked up): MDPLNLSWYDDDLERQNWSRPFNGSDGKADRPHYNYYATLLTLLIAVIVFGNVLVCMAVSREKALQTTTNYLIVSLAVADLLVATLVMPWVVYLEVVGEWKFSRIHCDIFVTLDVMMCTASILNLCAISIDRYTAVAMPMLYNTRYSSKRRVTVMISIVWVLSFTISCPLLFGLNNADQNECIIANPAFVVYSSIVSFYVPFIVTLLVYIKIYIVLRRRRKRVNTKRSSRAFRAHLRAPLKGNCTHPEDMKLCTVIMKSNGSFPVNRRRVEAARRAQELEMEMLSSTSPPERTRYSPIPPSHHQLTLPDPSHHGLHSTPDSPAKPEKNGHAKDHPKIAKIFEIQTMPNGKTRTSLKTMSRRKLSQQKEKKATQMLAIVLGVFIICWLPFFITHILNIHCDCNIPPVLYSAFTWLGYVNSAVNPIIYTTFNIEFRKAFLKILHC
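Agonist mode: compounds alone added to overnight-plated D2 PathHunter cells for 90 min at 37 C, with 57 uM final dopamine (EC100) defining full response. Beta-arrestin recruitment detected by chemiluminescent reagent, read after 1 h at ambient temperature.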
Six1-Eya2 blk = blocks human Six1 binding to Eya2. Q15475+O00167. activity change, % (no concentration beside the values). hit rate 0.56% among 360,000. AlphaScreen GST-Six1/His-Eya2 binding, biochemical; active compounds read low; control for the full effect not named in the record; in the data active = activity change below about -65%; inconclusive = about -30% to -65%; inactive = above about -30%; further: on the % scale 0 is the no-effect control and ±100 the full control effect
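AlphaScreen with GST-Six1 and His-Eya2 (5X mix: 250 nM and 500 nM), glutathione donor and nickel acceptor beads; buffer 50 mM Tris pH 8.0, 300 mM NaCl, 1 mM TCEP; 1 h at 37 C in the dark.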
D2 potentiator = positive allosteric modulators of human D2 dopamine receptor; P14416; DiscoveRx D2 beta-arrestin cells, luminescence, 90 min; 100% = 57 uM dopamine signal; potentiation, % (no concentration beside the values); hit rate 0.23% among 360,000; AID 624464; active = potentiation of 50% or more; inconclusive = 30% to 50%; inactive = 30% or less;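 further: compound concentration not given in the record; tested on top of an EC20 dose of dopamine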
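D2 cells co-treated with compound plus 50 nM dopamine (EC20) for 90 min at 37 deg C to detect potentiation. Beta-arrestin recruitment was read as enzyme-fragment luminescence after 1 h at ambient temperature. Full response was set by 57 uM dopamine.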
CtBP-E1A inh = inhibitors of CtBP/E1A interaction. AlphaScreen GST-E1A/His-CtBP binding, 1536-well; active compounds read low; control for the full effect not named in the record. hit rate 0.49% among 340,000. AID 651724. activity change, % (no concentration beside the values); in the data active means activity change below about -65%; inconclusive means about -30% to -65%; inactive means above about -30%; further: on the % scale 0 is the no-effect control and ±100 the full control effect
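AlphaScreen with 125 nM GST-E1A and 125 nM His-CtBP (5X stocks) in Tris pH 8.0, 300 mM NaCl, BSA, Tween 20, TCEP. Compounds preincubated 2 h at 37 deg C, then glutathione donor/nickel acceptor beads added for 1 h at 37 deg C in dark.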
gsp agonist = agonists of gsp mutant (McCune-Albright syndrome); hit rate 0.13% among 340,000; gsp mutant cells, cAMP HTRF, 30 min; control for the full effect not named in the record; AID 624287; Potency, µM (doses to about 76.9 µM), inactives show at the highest dose activation (cAMP increase), hits mostly activators; active = well fitted activation curve with a large enough effect; inconclusive = small, poorly fitted or top-dose-only effect, or another doubt; inactive = no such curve, though single readings can be large or run the other way; cell line not stated here;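 further: phosphodiesterase inhibitor Ro 20-1724 added with compounds to block cAMP breakdown; potency means the concentration at half of the fitted maximal effect; nearly all actives have a fitted effect of over 60% in size; about a fifth of the inactives were tested at one dose only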
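Cells in DMEM/10% FBS with G418 were pretreated with compounds in DMSO plus […] (300 uM stock) for 30 min at 37C. cAMP was measured by HTRF (cAMP-d2 plus anti-cAMP antibody-K) after 30 min at room temperature.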
gsp antagonist = antagonists of gsp mutant (McCune-Albright syndrome). gsp-mutant cells, cAMP HTRF, 30 min; control for the full effect not named in the record. Potency, µM (doses to about 76.9 µM), inactives show top-dose activity change, negative = inhibition, actives largely listed as inhibitors. hit rate 0.4% among 340,000; active = falling curve of any shape with a large fitted effect; inconclusive = falling curve, mostly with a smaller effect; inactive = flat or rising curve; cell line not stated here;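 further: intracellular cAMP measured with PDE inhibitor Ro 20-1724 present during compound exposure; potency means the concentration at half of the fitted maximal effect; on the % scale 0 is the no-effect control and ±100 the full control effect; nearly all actives have a fitted effect of over 65% in size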
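HTRF cAMP read-out (cAMP-d2 plus anti-cAMP antibody-K in lysis buffer, 30 min RT). Before lysis, cells are exposed to compounds with […] for 30 min at 37C in DPBS containing Ca/Mg, BSA and Tween 20.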
Numbers without * were called inactive; ? = inconclusive; · = no result given; [ ] = another dose, or the depositor's remark.

D2 agonist	Six1-Eya2 blk	D2 potentiator	CtBP-E1A inh	gsp agonist	gsp antagonist	molecule
-1.6	7	-6	-13	2%	·	CNC[C@@H]1Oc2cc(Br)ccc2S(=O)(=O)N([C@@H](C)CO)C[C@H]1C
-4.3	3	4	18	?	10%	COc1ncccc1C(=O)N1CCC(n2nccc2NC(=O)CC(C)C)CC1
-2.3	3	-9	-15	·	6%	COC(=O)[C@@H]1C[C@H]1[C@@H](NC(=O)c1ccccc1)c1ccccc1
8.4	5	11	-1	?	·	c1ccc(COc2ncnc3c2ncn3CCCN2CCN(c3ncccn3)CC2)cc1
5.5	2	-2	6	4%	24%	CCOC(=O)CSc1nc2cc3c(cc2cc1C#N)OCO3
2.3	-2	0	5	-28%	-7%	CCN(CC)S(=O)(=O)c1cccc(-c2nnc(SCc3nc4ccccc4s3)o2)c1
-3.9	-17	-18	7	-3%	7%	Cc1cc(NC(=O)CSc2nc(-c3ccco3)cc(C(F)(F)F)n2)no1
-1.2	1	-5	3	17%	14%	O=C(Nc1cccnc1)c1cc(-c2ccc(F)cc2)on1
-0.4	2	-12	-6	-37%[inhibitor]	6%	Cc1ccn2c(NC(=O)c3ccco3)c(-c3ccccc3)nc2c1
-5.0	48	-11	3	-1%	-12%	COC(=O)c1cc(C#N)c(SCc2ccccc2)nc1C
-4.9	-3	-19	0	0%	8%	Cc1cccc(C)c1OCC(=O)N/N=C/C=C/c1ccco1
0.0	0	-2	-4	-31%[inhibitor]	-33%	CCOC(=O)c1ccccc1NC(=O)CSc1nnc(COc2ccccc2)n1CC
-3.1	5	0	8	-1%	8%	NC(=O)C1c2ccccc2CSc2ccccc21 (configuration not stated)
2.0	-2	-15	-1	-20%	-9%	Cc1ccc(C)c(N2CCN(S(=O)(=O)c3csc(C(N)=O)c3)CC2)c1
-0.8	0	-1	5	·	1%	C[C@@H]1NS(=O)(=O)c2cc(Cl)ccc2O[C@@H]1c1ccccc1
3.2	-22	8	?	1%	3%	Cc1cc(C)n2nc(C(=O)Nc3ccc4c(c3)OCO4)cc2n1
1.3	-11	-7	0	-6%[15.4 µM]	-15%	Cc1ccc(OCC(=O)Nc2ccc(NC(=O)c3ccco3)cc2)c(C)c1
-4.2	-12	-3	·	16%	?	Nc1ccc(C(=O)N/N=C/c2ccc(N3CCOCC3)s2)cc1
-0.4	6	2	7	-2%	6%	CCP(=O)(CC)c1cccc(N)c1
4.5	3	0	-2	·	·	COc1cc(C(O)c2nc(-c3cncnc3)cs2)ccc1F (configuration not stated)
-2.0	0	-8	-1	2%	-3%	O=C1c2ccccc2C(=O)N1Cc1cc(-c2ccccc2Cl)no1
0.1	-13	11	-23	-44%[inhibitor]	-4%	COc1ccc(C(=O)NC(NC(=S)Nc2ccc(S(N)(=O)=O)cc2)C(Cl)(Cl)Cl)cc1 (configuration not stated)
-3.9	-3	-17	-3	-18%	5%	Cc1c(C2=CCN(S(=O)(=O)c3ccc(Br)cc3)CC2)c2ccccc2n1C
-4.9	0	-1	5	-5%	0%	CCCc1[nH]nc2c1C(c1ccc(Br)s1)C(C#N)=C(N)O2 (configuration not stated)
-2.7	3	12	3	10%	-2%	CCN(CC)c1ccc(N2C(=O)c3ccccc3C2=O)cc1
-0.1	8	-4	-1	3%[15.4 µM]	-12%	COCCC(=O)NC1CCCc2c1cnn2-c1cccc(C)c1C (configuration not stated)
-1.4	-2	-1	3	28%	-1%	Cc1ccc(C)n1-c1cc(S(=O)(=O)N2CCOCC2)ccc1N1CCCC1
-2.7	4	-11	·	18%	7%	CC(C)[C@H](NC(=O)c1ccccc1Cl)C(=O)OCC(=O)NC(=O)NCc1ccco1
3.2	1	2	1	-20%	?	CCCc1nc2ccccc2c(=O)n1/N=C/c1ccc(O)cc1
-1.4	3	1	2	-44%[inhibitor]	4%	CC(C(=O)Nc1ccc(S(=O)(=O)N2CCOCC2)cc1)N(c1ccccc1)S(C)(=O)=O (configuration not stated)

5 consecutive records out of the list so far, for reference:
D2 agonist	Six1-Eya2 blk	D2 potentiator	CtBP-E1A inh	gsp agonist	gsp antagonist	molecule
-2.7	3	12	3	10%	-2%	CCN(CC)c1ccc(N2C(=O)c3ccccc3C2=O)cc1
-0.1	8	-4	-1	3%[15.4 µM]	-12%	COCCC(=O)NC1CCCc2c1cnn2-c1cccc(C)c1C (configuration not stated)
-1.4	-2	-1	3	28%	-1%	Cc1ccc(C)n1-c1cc(S(=O)(=O)N2CCOCC2)ccc1N1CCCC1
-2.7	4	-11	·	18%	7%	CC(C)[C@H](NC(=O)c1ccccc1Cl)C(=O)OCC(=O)NC(=O)NCc1ccco1
3.2	1	2	1	-20%	?	CCCc1nc2ccccc2c(=O)n1/N=C/c1ccc(O)cc1

Other compounds
D2 agonist	Six1-Eya2 blk	D2 potentiator	CtBP-E1A inh	gsp agonist	gsp antagonist	molecule
?	-1	17	1	-13%[15.4 µM]	-16%	N=c1c2c(ncn1CCN1CCOCC1)Oc1cc(O)ccc1C2c1ccccc1 (configuration not stated)
-21	13	-9	·	8%	3%	CC(C)(C)OC(=O)NC(CC(=O)OCc1ccccc1)C(=O)O (configuration not stated)
2.1	4	-1	-2	6%	9%	COc1ccc(NC(=O)CSc2nnc(CNC(=O)COc3ccc(Cl)cc3)o2)c(OC)c1
-1.2	0	-5	23	-15%	8%	COc1ccc(-c2ccc(-c3noc(-c4cccc(OC)c4)n3)c(OC)n2)cc1
-6.1	18	-9	21	-11%[15.4 µM]	10%	CC(OC(=O)c1ccc(C#N)cc1)C(=O)Nc1ccc(Cl)cn1 (configuration not stated)
-0.9	12	4	-14	-7%[15.4 µM]	-9%	COC(=O)C1=C(N)Oc2c(oc(CO)cc2=O)C1c1c(F)cccc1Cl (configuration not stated)
-5.7	-5	3	-8	-1%	-32%	CN(c1ccc(-c2csc(NC(=O)C3CC(=O)N(Cc4ccco4)C3)n2)cc1)S(C)(=O)=O (configuration not stated)
-0.1	-12	-3	1	3%[15.4 µM]	3%	Cc1cc(C)n(CC(O)COc2ccc(Cl)cc2)n1 (configuration not stated)
-2.4	-16	21	-10	13%	-7%	Cc1cc(Cl)c2c(c1)[C@]1(C(=O)N2)[C@@H]2C(=O)N(Cc3ccccc3)C(=O)[C@@H]2[C@@H]2CCCN21
-3.5	2	-19	0	0%[15.4 µM]	12%	COc1ccc(C(=O)C[n+]2cccc3cc(OC)ccc32)cc1
1.5	-3	-6	-5	3%[15.4 µM]	7%	O=C(CCCCC(=O)Sc1ccccc1)Sc1ccccc1
-0.6	-10	-8	-5	13%	-34%	CO/N=C(\Cn1ncc(N2CCCC2)c(Br)c1=O)c1ccc(Cl)cc1
-2.3	-2	-12	2	?	7%	COc1ccc(CNCCc2ccccc2)cc1OCC(N)=O
-1.6	3	-9	1	7%[15.4 µM]	3%	Cc1cc(C(=O)NCc2cc(F)cc3c2OCOC3)nn1C
2.7	-4	1	-1	6%[15.4 µM]	-2%	Cc1cccn2c(=O)nc(SCC(=O)NCc3ccccc3Cl)nc12
-4.8	-6	-12	-10	21%[15.4 µM]	?	Fc1ccc2[nH]c3c(NCc4ccccc4)ncnc3c2c1
0.7	-3	-5	3	-22%	7%	CC(C)Nc1nnc(SCC(=O)NCc2ccc3c(c2)OCO3)s1
-1.3	-5	-4	-3	-2%[15.4 µM]	-4%	Cc1cc(NC(=O)CN2CCCCC2)no1
-3.1	3	-4	4	2%	7%	O=c1[nH]ncc(N/N=C\c2cccnc2)c1Cl
?	-23	2	0	-23%	?	C/C(=N\OCC(=O)OC(C)C(=O)Nc1ccc(C)c(S(=O)(=O)N2CCOCC2)c1)c1ccc2c(c1)OCO2 (configuration not stated)
2.6	6	-1	1	0%	1%	CC(=O)c1ccc(N=C2SCCCN2C(=O)C2CCCC2)cc1
-0.1	-2	-24	-13	11%	-5%	COc1ccc(OC(C)C(=O)Nc2cccc([N+](=O)[O-])c2)cc1 (configuration not stated)
0.2	31	-3	7	30%	12%	COc1cc(NC(=O)CSc2cc(C)c3cc(C)cc(C)c3n2)c(C(=O)O)cc1OC
-2.4	12	-5	0	16%	-7%	CCn1c(C)nc2cc(-c3nc4n(n3)Cc3ccccc3-4)ccc21
-0.1	-9	20	-10	-38%[inhibitor]	-16%	O=C(NCc1cccnc1)c1ccc(COc2cccc3ccccc23)o1
-1.9	4	-15	·	14%	4%	CCOc1ccccc1C(=O)NCC(=O)N(C)Cc1ccccc1C
2.5	13	6	3	14%[15.4 µM]	-2%	Cc1nc(-c2ccc(C(=O)N3CCCC3)cc2)cs1
2.6	3	-17	11	1%	7%	CCOc1ccc(-c2cc(C(=O)NCC3CCCO3)c3ccccc3n2)cc1 (configuration not stated)
4.1	3	-10	0	-3%	10%	COc1ccc2nc(Nc3nc(CSc4nnnn4-c4ccccc4)cc(=O)[nH]3)nc(C)c2c1
-2.9	-2	-5	0	2%	23%	N#Cc1nc(-c2ccco2)oc1N1CCCC1
-1.3	1	-7	7	2%	6%	CCOC(=O)c1oc2cc(OCC(N)=O)ccc2c(=O)c1-c1ccc(OC)c(OC)c1
0.9	-4	-18	12	1%	-9%	CN1C(=O)CSc2ccc(NC(=O)N3CCc4ccccc43)cc21
-2.2	4	-6	1	-2%	-13%	Cc1ccc(-n2ncc(C(=O)N3CCc4ccccc4C3)c2NC(=O)c2ccco2)cc1C
6.6	?	-37	·	-27%	2%	COc1cc2c(cc1OC)-c1cc(Nc3ccc(F)cc3)nc(=O)n1CC2
0.5	3	-2	6	-14%	-2%	Cc1cc(N2CCCC2=O)cc(C)c1CN1C(=O)c2ccccc2C1=O
-1.6	-1	-6	-1	-16%	22%	Cc1cc(C)c(C)c(S(=O)(=O)N2CCN(C)CC2)c1C
0.9	1	-7	3	-14%	5%	CCCc1ccc(-c2ccc(F)c(N)c2)nc1
-2.2	10	-17	10	-7%	1%	CCCCOC(=O)NC1(C)CCS(=O)(=O)C1 (configuration not stated)
-1.6	-2	-4	-2	-35%[inhibitor]	6%	O=C(c1cccc(Cl)c1)N1CCCC(C(=O)N2CCN(c3ccccc3)CC2)C1 (configuration not stated)
-1.7	3	2	-5	?	2%	CCc1ccccc1NC(=O)CSc1nnc([C@H](CCSC)NC(=O)OC(C)(C)C)o1
-1.4	-15	-7	·	?	-14%	CCC1=C(OC(=O)N(CC)CC)N2C(=O)OC(=NCCc3c[nH]c4ccccc34)[C@]2(C)[C@H]2C1=CC[C@H]1C(=O)N(CC(=O)OC)C(=O)[C@H]12
6.9	1	-9	·	39%	5%	CCCCNC(=S)NC(C)(C)CO
-0.4	7	-1	0	0%	-1%	O=C(COc1ccccc1Cl)NCCc1ccc2c(c1)OCCO2
-0.6	-4	-23	-7	17%	-12%	Cc1cccc(N2CCN(C(=O)CC(NC(=O)c3ccccc3)c3ccccc3)CC2C)c1 (configuration not stated)
